# Screens deposited in PubChem by Fisher Drug Discovery Resource Center.
# NPYLR7 ag: mosquito NPYLR7 agonism | 0.15% of 270,000 active | activation, % at 10 µM | HEK293T NPYLR7/Galpha15, GCaMP6s calcium fluorescence; in the data active means activation above about 40%;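 further: 0% = vehicle and 100% = reference agonist at the receptor; some compounds past the cut are filed as inactive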
# NPYLR7 ag max-min: recorded beside NPYLR7 ag, whose call it bears; activation, %; measured here: Max-Min RFU normalised activation; some inactives read as strong as hits;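 span of the calcium signal over five minutes; 0% = vehicle and 100% = native peptide agonist; compound fluorescence can raise it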
# * = called active by the depositor; & = joins results of further samples. Not all compounds are listed, so the mix of outcomes need not match the whole.
SMILES,NPYLR7 ag,NPYLR7 ag max-min
COCCNC(=O)CCC1CCN(C(=O)c2ccco2)CC1,-2,-6
O=C(CSc1nc(=O)n(CCCO)c2c1CCC2)N1CCCc2ccccc21,16,9
O=C(CCc1nnc(CCCc2ccccc2)o1)NC(c1ccco1)C(F)(F)F (stereo not drawn),1,0
CCCCN(C(C)c1nc2ccccc2c(=O)n1-c1ccc(CC)cc1)S(=O)(=O)c1ccc(Cl)cc1 (stereo not drawn),14,14
COc1ccc(N(C)S(=O)(=O)c2ccc(OC)c(N3CCN(C(=O)c4cc(C)oc4C)CC3)c2)cc1,5,-8
COc1cc(=O)n(-c2ccccc2)nc1C(=O)N1CCN(c2ccccc2)CC1,4,2
COc1cc(OC)cc(C(=O)c2c(N)sc3c2CCC(C)C3)c1 (stereo not drawn),-2,-4
CCCC1COCCN1C(=O)CSc1n[nH]c(N)n1 (stereo not drawn),6,-12
Cc1ccc(-n2ncc3c2ncn2c(C4CCCO4)nnc32)cc1 (stereo not drawn),-3,-5
CC(C)Nc1ccccc1C(=O)N1CCN2CCN(C)CC2C1 (stereo not drawn),13,12
O=C(O)c1cc(I)cc(C(F)(F)F)c1,7,4
Cc1noc(C)c1CSc1nnc2c(Cl)cc(C(F)(F)F)cn12,8,4
CC1=NN(c2ccccc2)C(=O)/C1=C/c1ccc(-c2cccc([N+](=O)[O-])c2)o1,2,-2
CC(C)CCNC(=O)CCCn1ncn2c(cc3occc32)c1=O,2,-1
COc1cccc(C(N)P(=O)(O)O)c1 (stereo not drawn),14,10
O=C1OC(/C=C/c2ccccc2)=NC/1=C/c1ccc(F)cc1,-2,-5
Cn1nc2c(c1C(=O)NCc1n[nH]c3c1CCC3)CCCC2,24,19
COc1cccc(CN2N=NC3C(=O)N(c4ccc(OC)c(Cl)c4)C(=O)C32)c1 (stereo not drawn),3,-5
CCN1C(=O)c2ccc(Cl)cc2NC1c1ccsc1 (stereo not drawn),0,-2
CN1CC2(CCCN(C(=O)CCCc3cn[nH]c3)CC2)OC1=O (stereo not drawn),0,-2
CC(Oc1ccc2c(c1)OCCO2)C(=O)Nc1ccccc1Cl (stereo not drawn),4&1,-1&-4
O=C1c2ccccc2C(=O)N1CCc1nc(-c2cnccn2)no1,-6,2
N#CC1(NC(=O)CSc2nnc(-c3c[nH]c4ccccc34)o2)CCCCC1,3,8
CCOc1cc(C(C#N)N2CCCCC2)ccc1OC (stereo not drawn),-6,-9
Nc1nc(CSCC(=O)Nc2cccc(F)c2)nc2ccccc12,-3,-4
Cc1cccc(NC(=O)c2sc3[nH]c(=O)c(C(=O)O)cc3c2N)c1,-1,0
CN(C)Cc1nc(C(=O)N(C)Cc2cnc3ccccc3c2)cs1,-4,-8
CCN(CC(=O)Nc1cc(-c2ccccc2)nn1-c1ccc(Cl)c(Cl)c1)C(=O)Nc1ccc(Cl)cc1Cl,19,27
CN(C)CCCN(C(=O)CCS(=O)(=O)c1ccccc1)c1nc2ccc(Cl)cc2s1,1,0
Nc1nc2ccc(Cc3ccc4nc(N)sc4c3)cc2s1,-1,-4
OCC1(Cc2ccccc2)CCN(Cc2cc3ccccc3s2)CC1,18&-7,4&-10
Cc1ccc(S(=O)(=O)N(CCN2CCOCC2)Cc2nccn2Cc2ccccc2F)cc1,3,11
CCOCCOc1nc(-c2ccc(C(F)(F)F)cc2)n(-c2cccc(NC(=O)c3cccs3)c2)n1,15,3
Cc1c(C(=O)OC(C)C)[nH]c2c1C(=O)CC(C)(C)C2,12,4
COc1cc(C(C2Sc3nc(C)nn3C2=O)N2CC(C)CC(C)C2)cc(OC)c1OC (stereo not drawn),-9,-7
CN1CCn2nc(C(=O)NCC3CC(=O)N(C4CCCC4)C3)cc2C1 (stereo not drawn),10,8
COc1ccc(CN2CCC(C(=O)Nc3ccc(Oc4cccnc4)cc3)CC2)c(C)c1C,5,0
CC1CCCN(C(=S)NCc2ccccc2)C1 (stereo not drawn),8,2
CCOc1ccc(-n2nnc3c(N4CCN(C(=O)c5ccccc5)CC4)ncnc32)cc1,-5,-13
Brc1ccc2c(c1)C1CC(c3cccs3)=NN1C(c1cccnc1)O2 (stereo not drawn),6,5
Cc1cccc(NC(=O)Cn2nc(C3CCN(S(C)(=O)=O)CC3)n(C)c2=O)c1C,-5,3
CN(Cc1nn[nH]n1)C(=O)c1ccc(-c2ccc(F)cc2)o1,-8,-8
CCc1nc(C)c(C(=O)N2CCC(c3[nH]ncc3-c3cccc(C)c3)CC2)o1,-1,-2
CCOC(=O)Cn1c(=O)c2c(nc3n(C4CCCC4)c(C)cn23)n(C)c1=O,-6,-6
CNc1cc(-c2cccc(C(F)(F)F)n2)c2cc[nH]c2n1,-9,-14
COC(=O)c1ccc(NC(=O)C(C)S(=O)(=O)C(C)C)c(Br)c1 (stereo not drawn),4,2
Cc1cc(-c2cc(F)cc3c2OC(CNC(=O)c2ccoc2)C3)ccc1F (stereo not drawn),3,0
C=CCNC(=S)NNC(=O)Cc1cn2ccsc2n1,1,-3
COCCN(CC(=O)N(CCc1c[nH]c2ccccc12)Cc1ccc(F)cc1)C(=O)Nc1cccc(OC)c1,-11,-9
Cc1ccc2c(CC(=O)NC3=NCCS3)coc2c1C,2,1
# (continued)
SMILES,NPYLR7 ag,NPYLR7 ag max-min
COCCNS(=O)(=O)c1ccc(OC)c(N2CCN(S(=O)(=O)c3ccccc3C(F)(F)F)CC2)c1,4,2
Cn1cc(/C=C/C(=O)N2CCC(CCC(=O)NCC3CCCO3)CC2)cn1 (stereo not drawn),9&6,12&1
C/C=C(\C)C(=O)N1CCC(c2cn(C)c3ccccc23)CC1,35,32
CC(C)CNS(=O)(=O)c1ccc2[nH]cc(C(=O)O)c(=O)c2c1,0,-4
CC(=O)NCc1ccc(S(=O)(=O)Oc2cccc(Cl)c2Cl)s1,4,2
N#Cc1cccc(C=CC(=O)c2ccc(O)cc2)c1,9,11
Clc1ccc(CN2CCN(Cc3cnc(N4CCCC4)nc3)CC2)cc1,3,5
COc1ccc(C2=Nc3ncnn3C(c3ccc(OC)c(OC)c3)C2)cc1OC (stereo not drawn),3,2
CCOc1ccc(S(=O)(=O)c2cnc(SCC(=O)NCc3ccccc3)[nH]c2=O)cc1,1,-3
Cc1ccc(NC(=O)CSc2nc3nc(C)cc(C)n3n2)cc1,0,6
CCC(C)N(Cc1ccc(OC)c(OCc2nc(CO)cs2)c1)C(=O)C1CCCC1 (stereo not drawn),9,11
CNC(=O)[C@H]1C[C@]2(CCCCN(C)C2=O)N(S(=O)(=O)c2ccccc2)[C@H]1c1ccccc1,1,5
CC12C=CC3(CN(CCCN4CCOCC4)C(=O)C3C1C(=O)O)O2 (stereo not drawn),5,2
O=C(CCN1Cc2ccccc2OC(c2ccccc2)C1)NCCc1nc2ccccc2c(=O)[nH]1 (stereo not drawn),3,-3
Cn1nnc2c(Nc3cccc(F)c3)ncnc21,9,5
CNC(=O)c1nn(-c2ccc(C)cc2)c(=O)cc1OC,-5,-3
Cc1ccc(CNC(=O)Cn2c(CO)cnc2SCc2ccccc2)cc1,4,3
Cc1nn2c(=O)[nH]c(SCC(=O)N3CC(C)OC(C)C3)nc2c1-c1ccccc1 (stereo not drawn),13,0
Cc1c(C(=O)O)sc2nc3n(c(=O)c12)CCCCC3,-2,-1
CCN1C(=O)C2C(c3ccc([N+](=O)[O-])cc3)NN(Cc3ccccc3)C2C1=O (stereo not drawn),0,-9
CN1C[C@H](O)[C@]2(CCN(C3CCCCCC3)C2)S1(=O)=O,1,2
Cc1nc(NCCNC(=O)CC(C)C)cc(N2CCOCC2)n1,5,4
Cc1c(C(=O)NCc2ccccc2C(F)(F)F)sc(=O)n1Cc1ccc(Cl)c(Cl)c1,-2,-3
O=C(O)CSc1nc2ccccc2c2nc(=O)c(Cc3ccccc3)nn12,4,3
Cc1ccccc1CN(C)Cn1nc2c(Cl)cc(Cl)cn2c1=S,-1,-1
CC(C)(C)C1CCC(OCC(O)CN(CCO)CCO)CC1 (stereo not drawn),-1,-4
O=C(C1COc2ccccc2O1)N(Cc1ccccn1)c1nc2c(Cl)cccc2s1 (stereo not drawn),1,4
CCOC(=O)C1CCCN(C(=O)c2cc(-c3cccc(OC)c3)n3nc(-c4ccccc4)cc3n2)C1 (stereo not drawn),20,29
COCCn1c(SCC(=O)Nc2ccc(OC)cc2)nc2c(c1=O)SC(C)C2 (stereo not drawn),0,-1
COc1ccc(-n2c(=O)[nH]c3c(C(N)=O)nc(-c4ccncc4)nc32)cc1OC,-4,-9
CCCCN(C)C(=O)c1nc2ccccn2c1CN1CCN(C/C=C/c2ccccc2)CC1,10,3
O=C(COC(=O)C=Cc1ccc(I)o1)NC1CC1,0,0
Cc1ccc(-c2nnnn2C2CCS(=O)(=O)C2)cc1 (stereo not drawn),1,3
Cc1nc(C(F)(F)F)ccc1C(=O)OCCN1CCCCCC1=O,3,2
CCOC(=O)Nc1cc(C)nn1-c1nc(-c2ccc(OCC)cc2)cs1,-14,-20
Cc1c(Br)c(C(F)(F)F)nn1CC(=O)Nc1cc(O)cc([N+](=O)[O-])c1,-1,0
COc1ccc2c(c1)[C@]1(C(=O)O)CNC[C@@H]1C(C)(C)CO2,3,13
CCc1[nH]n(-c2cccc(Cl)c2)c(=O)c1C1=C([n+]2cccc(C)c2)C(=O)N(C(C)C)C1=O,4,4
O=C(CS(=O)(=O)C1CCCC1)N1CCCCC1Cc1ccccc1 (stereo not drawn),-5,-6
Cc1ccc(Nc2nc(NCCCc3ccccc3)nc3nccnc23)cc1,4,6

# Part of the list above, as tab-separated lines:
Structure	NPYLR7 ag	NPYLR7 ag max-min
O=C(O)CSc1nc2ccccc2c2nc(=O)c(Cc3ccccc3)nn12	4	3
Cc1ccccc1CN(C)Cn1nc2c(Cl)cc(Cl)cn2c1=S	-1	-1
CC(C)(C)C1CCC(OCC(O)CN(CCO)CCO)CC1 (stereo not drawn)	-1	-4
O=C(C1COc2ccccc2O1)N(Cc1ccccn1)c1nc2c(Cl)cccc2s1 (stereo not drawn)	1	4
CCOC(=O)C1CCCN(C(=O)c2cc(-c3cccc(OC)c3)n3nc(-c4ccccc4)cc3n2)C1 (stereo not drawn)	20	29
COCCn1c(SCC(=O)Nc2ccc(OC)cc2)nc2c(c1=O)SC(C)C2 (stereo not drawn)	0	-1
COc1ccc(-n2c(=O)[nH]c3c(C(N)=O)nc(-c4ccncc4)nc32)cc1OC	-4	-9
CCCCN(C)C(=O)c1nc2ccccn2c1CN1CCN(C/C=C/c2ccccc2)CC1	10	3
O=C(COC(=O)C=Cc1ccc(I)o1)NC1CC1	0	0
Cc1ccc(-c2nnnn2C2CCS(=O)(=O)C2)cc1 (stereo not drawn)	1	3
Cc1nc(C(F)(F)F)ccc1C(=O)OCCN1CCCCCC1=O	3	2
CCOC(=O)Nc1cc(C)nn1-c1nc(-c2ccc(OCC)cc2)cs1	-14	-20
Cc1c(Br)c(C(F)(F)F)nn1CC(=O)Nc1cc(O)cc([N+](=O)[O-])c1	-1	0
COc1ccc2c(c1)[C@]1(C(=O)O)CNC[C@@H]1C(C)(C)CO2	3	13
CCc1[nH]n(-c2cccc(Cl)c2)c(=O)c1C1=C([n+]2cccc(C)c2)C(=O)N(C(C)C)C1=O	4	4
O=C(CS(=O)(=O)C1CCCC1)N1CCCCC1Cc1ccccc1 (stereo not drawn)	-5	-6
Cc1ccc(Nc2nc(NCCCc3ccccc3)nc3nccnc23)cc1	4	6

# Full records as entered above. Order of screens: NPYLR7 ag	NPYLR7 ag max-min
# `COc1ccc2c(c1)[C@]1(C(=O)O)CNC[C@@H]1C(C)(C)CO2` is listed as 3	13
# `O=C(CS(=O)(=O)C1CCCC1)N1CCCCC1Cc1ccccc1` (stereo not drawn) is listed as -5	-6

# Carrying on:
SMILES,NPYLR7 ag,NPYLR7 ag max-min
Cc1c(NC(=O)CN2CCC(NS(=O)(=O)c3ccccc3)CC2)c(=O)n(-c2ccccc2)n1C,13,12
CC(C)(C)NS(=O)(=O)c1cncc(-c2cc(F)c3nc(N)nn3c2)c1,16,2
CCCN(C)CC1CCN(c2nc3ccccc3nc2N2CC(C)OC(C)C2)C1 (stereo not drawn),3,1
Cc1cc(NC(=O)CN2C(=O)CCC2=O)n(-c2nc3ccccc3s2)n1,-7,-14
COc1ccccc1OCC(=O)N1CCc2c(cnc(C)c2CNC(=O)Cc2ccsc2)C1,-8,-11
Cc1cccc(Oc2cnn(C)c(=O)c2Nc2cccc(C(=O)NCc3ccc(F)cc3)c2)c1C,8,17
O=S(=O)(c1cccc(C(F)(F)F)c1)N1CCN(c2nc3nccc(-c4cccnc4)n3n2)CC1,6,8
COc1c2cccc(C)c2c(C=O)c2c(COC(C)=O)coc12,-7,-12
Cc1nc(CNC(=O)c2ccc(-c3ccccc3)[nH]2)cs1,11,-2
COc1ccc(S(=O)(=O)Oc2ccc(CN(Cc3ccc(F)cc3)C(=O)Nc3ccccc3OC)cc2)cc1,19,25
CCCCS(=O)(=O)NC(=O)C1(C)CCN1C(=O)c1ccccc1CCc1ccccc1 (stereo not drawn),5,1
COc1ccc(Cl)c2sc(N(CCN(C)C)C(=O)c3ccc(N(C)C)cc3)nc12,8,6
CCOC(=O)C1(Cc2cccc(OC)c2)CCCN(C(=O)Cn2nc(C)nc2C)C1 (stereo not drawn),17,1
CCN1C(=O)/C(=C/C=C2/C=CC=CN2CC)SC1=S,18,20
CCCCSc1nc2c(c(=O)[nH]1)C(c1ccc(F)cc1)C(C(=O)OC)C(C)=N2 (stereo not drawn),-4,-7
C=CCn1c(-c2nonc2N)nc2ccccc21,-5,-7
Cc1cc(C)c2oc(C(=O)N(Cc3ccc(N(C)C)cc3)C3CCS(=O)(=O)C3)c(C)c2c1 (stereo not drawn),-10,-13
Cc1cc(C)cc(NC(=O)CCc2c(C)nn(-c3nc(C)c(C)c(=O)[nH]3)c2C)c1,7,2
CC(C)CCn1c(Cl)nc2c1c(=O)n(C)c(=O)n2C,4,4
O=C(NCc1cc(C2CC2)on1)c1cn(CC2CCCNC2)nn1 (stereo not drawn),1,-1
Cc1cc(C(=O)N(C)Cc2ccccc2O)c(C)n1-c1ccccn1,6,7
COC(=O)c1cc(C(=O)OC)cc(S(=O)(=O)N2CCCC2c2ccccc2)c1 (stereo not drawn),7,6
O=C(Cc1ccc(S(=O)(=O)N2CCOCC2)s1)N1CCCSc2ccccc21,4,0
CC(C)c1ccc(NC(=O)CNC(=O)C2CC2(c2ccccc2)c2ccccc2)cc1 (stereo not drawn),-1,-3
